Bioassay records (PubChem BioAssay)
Env fusion inh: inhibitors of HIV-1 Env-driven cell-cell fusion, primary screen, HeLa-JRFL effector, CEM21 target cells, luciferase. hit rate 1.1% among 360,000. inhibition, % at 12.3 µM. AID 651610, 2012;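 active = mean replicate inhibition score of at least 50 and every replicate individually at or above 50; inconclusive = only one of the two criteria met; inactive = mean below 50 and not all replicates reaching 50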;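 also: 0% = plate neutral controls and 100% = maraviroc near 300 nM; one replicate is shown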
UUG fidelity: modulators of yeast start codon fidelity, primary screen, whole organism, S. cerevisiae, single point, plate reader | activity score, % at 18.7 µM | hit rate 0.13% among 350,000 | S. cerevisiae UUG-firefly luciferase reporter, luminescence/redox ratio;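 active = replicate mean at a twofold rise or more, about +100% in these data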;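 also: firefly luciferase made from a UUG start codon reports start codon fidelity; reporter light over untreated wells divided by growth signal over untreated wells; some hits fall short of that in this replicate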
The depositor's hits bear a star; ? = inconclusive; [ ] = remark or other dose. Some of the compounds tested; count on the stated rates, not on these rows.

SMILES	Env fusion inh	UUG fidelity
COc1ccc(S(=O)(=O)Nc2cccc3c2O[C@@H](CN(C)C(=O)Nc2ccccc2)[C@H](C)CN([C@H](C)CO)C3=O)cc1	-10[16.7 µM]	13
CC(C)NC(=O)N(C)C[C@@H]1Oc2ccc(NC(=O)CCCN(C)C)cc2CC(=O)N([C@@H](C)CO)C[C@H]1C	-2[16.7 µM]	11
CCCN(C)C[C@H]1OCCCC[C@@H](C)Oc2ccc(NC(=O)Nc3ccc4c(c3)OCO4)cc2C(=O)N([C@H](C)CO)C[C@@H]1C	-2[16.7 µM]	-1
C[C@@H]1CCCCO[C@@H](CN(C)S(=O)(=O)c2ccccc2)[C@@H](C)CN([C@@H](C)CO)C(=O)c2cc(NS(=O)(=O)c3ccc(Cl)cc3)ccc2O1	-18[16.7 µM]	8
O=C(CCN1CCCCC1)N[C@@H]1CC[C@H](CCn2cc(-c3ccccc3)nn2)O[C@H]1CO	-30[16.7 µM]	-12
C[C@H](CO)N1C[C@H](C)[C@@H](CN(C)Cc2ccc(C(=O)Nc3ccccc3N)cc2)Oc2ccc(NC(=O)NC3CCCCC3)cc2CC1=O	28[16.7 µM]	-11
CC(C)NC(=O)N(C)C[C@@H]1Oc2ncc(C#Cc3ccc(F)cc3)cc2C(=O)N([C@@H](C)CO)C[C@@H]1C	-17[16.7 µM]	5
CO[C@H]1CN(C)C(=O)c2cc(NC(=O)Nc3cccc(F)c3)ccc2OC[C@@H](C)N(C(C)=O)C[C@H]1C	2[16.7 µM]	2
COc1cccc(S(=O)(=O)N[C@@H]2CC[C@H](CCNC(=O)Nc3cc(F)ccc3F)O[C@H]2CO)c1	1[16.7 µM]	6
COc1ccc(NC(=O)Nc2ccc3c(c2)CC(=O)N([C@@H](C)CO)C[C@@H](C)[C@H](CN(C)C(=O)Nc2ccc(C(F)(F)F)cc2)O3)cc1	11[16.7 µM]	17

Single entries from the list.
Reading of `C[C@@H]1CCCCO[C@@H](CN(C)S(=O)(=O)c2ccccc2)[C@@H](C)CN([C@@H](C)CO)C(=O)c2cc(NS(=O)(=O)c3ccc(Cl)cc3)ccc2O1` in UUG fidelity: 8
Reading of `C[C@H](CO)N1C[C@H](C)[C@@H](CN(C)Cc2ccc(C(=O)Nc3ccccc3N)cc2)Oc2ccc(NC(=O)NC3CCCCC3)cc2CC1=O` in Env fusion inh: 28[16.7 µM]

Some of the entries above, set out differently:
| SMILES | Env fusion inh | UUG fidelity |
| --- | --- | --- |
| O=C(CCN1CCCCC1)N[C@@H]1CC[C@H](CCn2cc(-c3ccccc3)nn2)O[C@H]1CO | -30[16.7 µM] | -12 |
| C[C@H](CO)N1C[C@H](C)[C@@H](CN(C)Cc2ccc(C(=O)Nc3ccccc3N)cc2)Oc2ccc(NC(=O)NC3CCCCC3)cc2CC1=O | 28[16.7 µM] | -11 |
| CC(C)NC(=O)N(C)C[C@@H]1Oc2ncc(C#Cc3ccc(F)cc3)cc2C(=O)N([C@@H](C)CO)C[C@@H]1C | -17[16.7 µM] | 5 |
| CO[C@H]1CN(C)C(=O)c2cc(NC(=O)Nc3cccc(F)c3)ccc2OC[C@@H](C)N(C(C)=O)C[C@H]1C | 2[16.7 µM] | 2 |
| COc1cccc(S(=O)(=O)N[C@@H]2CC[C@H](CCNC(=O)Nc3cc(F)ccc3F)O[C@H]2CO)c1 | 1[16.7 µM] | 6 |

Continued:
SMILES	Env fusion inh	UUG fidelity
CO[C@@H]1CN(C)C(=O)c2cc(NC(C)=O)ccc2OC[C@H](C)N(C(=O)c2ccccn2)C[C@H]1C	-25[16.7 µM]	2
Cc1ccc(-c2cnc3c(c2)C(=O)N([C@H](C)CO)C[C@H](C)[C@@H](CN(C)C(=O)c2cccnc2)O3)cc1	-2[16.7 µM]	21
CN1C(=O)c2cc(NC(=O)c3ccc(C(F)(F)F)cc3)ccc2OC[C@@H]2O[C@@H](CC(=O)NCc3ccc4c(c3)OCO4)CC[C@@H]21	?	3
COc1ccc(NC(=O)Nc2ccc3c(c2)[C@@H]2C[C@@H](CC(=O)NCc4ccccc4F)O[C@@H](CO)[C@@H]2O3)cc1	-3[16.7 µM]	3
C/C=C/c1cnc2c(c1)C(=O)N([C@@H](C)CO)C[C@H](C)[C@@H](CN(C)C(=O)NC1CCCCC1)O2	-17[16.7 µM]	-7
CC(C)NC(=O)N[C@@H]1CC[C@@H](CCNS(=O)(=O)Cc2ccccc2)O[C@@H]1CO	-7[16.7 µM]	-4
C[C@H](O)C#Cc1cnc2c(c1)C(=O)N([C@H](C)CO)C[C@@H](C)[C@H](CN(C)C(=O)c1ccccc1F)O2	3[16.7 µM]	13
N#C[C@H]1[C@H](c2ccc(C#CC3CCCC3)cc2)[C@H](CO)N1S(=O)(=O)c1ccccc1	15[16.7 µM]	-8
C[C@H](CO)N1C[C@H](C)[C@H](CN(C)C(=O)Nc2ccc(F)cc2)Oc2c(NC(=O)c3nc4ccccc4s3)cccc2C1=O	-38[16.7 µM]	-1
COc1cccc(-c2cnc3c(c2)C(=O)N([C@H](C)CO)C[C@H](C)[C@@H](CN(C)C(=O)Nc2ccccc2F)O3)c1	2[16.7 µM]	11
CCC(=O)Nc1ccc2c(c1)C(=O)N(C)C[C@@H](OC)[C@H](C)CN(C(=O)c1ccc(F)cc1)[C@@H](C)CO2	6[16.7 µM]	1
C[C@H](CO)N1C[C@H](C)[C@H](CN(C)CC2CCOCC2)Oc2cc(C#Cc3cccnc3)ccc2S1(=O)=O	11[16.7 µM]	-2
C[C@@H]1CCCCO[C@H](CN(C)C(=O)NC2CCCCC2)[C@H](C)CN([C@@H](C)CO)C(=O)c2cc(NC(=O)Nc3ccccc3)ccc2O1	17[16.7 µM]	-7
Cc1noc(C)c1NC(=O)Nc1ccc2c(c1)C(=O)N([C@H](C)CO)C[C@H](C)[C@H](CN(C)Cc1ccc3c(c1)OCO3)OCCCC[C@H](C)O2	-3[16.7 µM]	8
C[C@@H]1CN([C@@H](C)CO)C(=O)c2cc(-c3ccncc3)cnc2O[C@H]1CN(C)C(=O)C1CC1	9[16.7 µM]	-3
CCC(=O)N[C@@H]1CC[C@H](CCn2cc(-c3cccc(OC)c3)nn2)O[C@H]1CO	-4[16.7 µM]	-5
C[C@@H]1CN([C@H](C)CO)C(=O)Cc2cc(NC(=O)Cc3cn(C)c4ccccc34)ccc2O[C@H]1CN(C)CC1CCCCC1	20[16.7 µM]	0
COc1cccc(S(=O)(=O)Nc2ccc3c(c2)C(=O)N(C)[C@H]2CC[C@@H](CC(=O)O)O[C@H]2CO3)c1	-9[16.7 µM]	4
COc1ccc(S(=O)(=O)Nc2ccc3c(c2)CC(=O)N([C@H](C)CO)C[C@@H](C)[C@@H](CN(C)C(=O)Nc2ccc(C(F)(F)F)cc2)O3)cc1	-13[16.7 µM]	-7
Cc1ccccc1-c1ccc2c(c1)O[C@@H](CN(C)Cc1ccncc1)[C@H](C)CN([C@H](C)CO)S2(=O)=O	36[16.7 µM]	-12
C[C@@H]1CN([C@H](C)CO)S(=O)(=O)c2ccc(-c3ccc(F)cc3)cc2O[C@@H]1CN(C)C(=O)C1CCCCC1	41[16.7 µM]	5
COc1ccc(NC(=O)N(C)C[C@H]2Oc3ccc(NC(=O)Nc4cccc5ccccc45)cc3C(=O)N([C@@H](C)CO)C[C@@H]2C)cc1	-6[16.7 µM]	11
C[C@H]1CN([C@@H](C)CO)C(=O)c2cccc(NC(=O)NC3CCCCC3)c2O[C@@H]1CN(C)Cc1ccncc1	7[16.7 µM]	-11
CCCNC(=O)N1[C@H](C#N)[C@H](c2ccccc2)[C@@H]1CO	4[16.7 µM]	-2
C[C@@H]1CCCCO[C@@H](CN(C)S(=O)(=O)c2cn(C)cn2)[C@H](C)CN([C@H](C)CO)C(=O)c2cc(NC(=O)NC3CCCCC3)ccc2O1	-14[16.7 µM]	-7
CC(=O)Nc1ccc2c(c1)C(=O)N(C)[C@@H]1CC[C@H](CC(=O)N3CCc4ccccc4C3)O[C@@H]1CO2	-19[16.7 µM]	-3
COc1ccc(NC(=O)Nc2cccc3c2O[C@H](CN(C)S(=O)(=O)c2ccccc2)[C@H](C)CN([C@H](C)CO)C3=O)cc1	39[16.7 µM]	2
COc1ccc(S(=O)(=O)Nc2ccc3c(c2)C(=O)N([C@@H](C)CO)C[C@H](C)[C@@H](CN(C)C(=O)Nc2ccc4c(c2)OCO4)OCCCC[C@H](C)O3)cc1	10[16.7 µM]	26
C[C@H]1CCCCO[C@H](CN(C)C(=O)Nc2ccc3c(c2)OCO3)[C@@H](C)CN([C@@H](C)CO)C(=O)c2cc(NC(=O)CCCN(C)C)ccc2O1	-10[16.7 µM]	11
COc1ccccc1C#Cc1cnc2c(c1)C(=O)N([C@H](C)CO)C[C@H](C)[C@@H](CN(C)C(=O)CC1CC1)O2	12[16.7 µM]	18
CC(C)NC(=O)N(C)C[C@H]1Oc2c(NC(=O)NC3CCCCC3)cccc2C(=O)N([C@@H](C)CO)C[C@@H]1C	2[16.7 µM]	2
C[C@H]1CN([C@@H](C)CO)S(=O)(=O)c2ccc(C#CCN(C)C)cc2O[C@@H]1CN(C)C(=O)Nc1ccccc1F	-17[16.7 µM]	46
COc1ccc(NC(=O)N[C@@H]2CC[C@@H](CCn3cc(-c4ccccc4)nn3)O[C@@H]2CO)cc1	-20[16.7 µM]	-13
CCCNC(=O)C[C@H]1CC[C@H]2[C@H](COc3ccc(NC(=O)Nc4ccccc4F)cc3C(=O)N2C)O1	-16[16.7 µM]	1
C[C@@H]1CN([C@H](C)CO)S(=O)(=O)c2ccc(C3=CCCC3)cc2O[C@H]1CN(C)CC1CCCC1	9[16.7 µM]	0
Cc1noc(C)c1S(=O)(=O)Nc1ccc2c(c1)C(=O)N([C@H](C)CO)C[C@@H](C)[C@H](CN(C)Cc1ccc(-c3ccccc3)cc1)O2	-21[16.7 µM]	7
CN(C)C(=O)c1cccc(-c2ccc([C@H]3[C@@H](C#N)N(C(=O)C4CCC4)[C@H]3CO)cc2)c1	-8[16.7 µM]	7
Cc1ccc(-c2ccc3c(c2)O[C@H](CN(C)Cc2ccncc2)[C@H](C)CN([C@H](C)CO)S3(=O)=O)cc1	20[16.7 µM]	-4
Cc1ccc(S(=O)(=O)N[C@H]2C=C[C@H](CC(=O)NCCc3ccncc3)O[C@@H]2CO)cc1	9[16.7 µM]	-16
C[C@H](CO)N1C[C@H](C)[C@@H](CN(C)C)Oc2cc(C#Cc3ccccc3F)ccc2S1(=O)=O	24[16.7 µM]	-4
CCCC(=O)Nc1ccc2c(c1)C(=O)N(C)C[C@H](OC)[C@@H](C)CN(C(=O)c1ccncc1)[C@@H](C)CO2	30[16.7 µM]	-11
CNC[C@H]1Oc2ccc(NC(=O)Cc3cn(C)c4ccccc34)cc2CC(=O)N([C@H](C)CO)C[C@@H]1C	9[16.7 µM]	2
C[C@@H]1CCCCO[C@H](CN(C)CC2CCCCC2)[C@@H](C)CN([C@H](C)CO)C(=O)c2cc(NC(=O)Cc3ccccc3)ccc2O1	-2[16.7 µM]	-7
CNC[C@@H]1Oc2ccc(NC(=O)Cc3cn(C)c4ccccc34)cc2CC(=O)N([C@H](C)CO)C[C@H]1C	-2[16.7 µM]	15
N#C[C@H]1[C@H](c2ccc(C#Cc3ccc(F)cc3)cc2)[C@@H](CO)N1C(=O)C1CCC1	15[16.7 µM]	13
COCc1cn(CC[C@@H]2CC[C@H](NC(=O)Nc3c(C)noc3C)[C@H](CO)O2)nn1	-19[16.7 µM]	2
CCCC#Cc1ccc2c(c1)O[C@@H](CN(C)C(=O)COC)[C@H](C)CN([C@H](C)CO)S2(=O)=O	5[16.7 µM]	1
CCC(=O)Nc1ccc2c(c1)OC[C@@H](C)N(C(=O)c1ccncc1)C[C@@H](C)[C@H](OC)CN(C)C2=O	-13[16.7 µM]	-6
C[C@H](CO)N1C[C@H](C)[C@@H](CN(C)C(=O)Nc2ccc3c(c2)OCO3)Oc2ncc(C#CC3(O)CCCC3)cc2C1=O	11[16.7 µM]	13
COC(=O)C[C@@H]1CC[C@H](NC(=O)Nc2ccc(C(F)(F)F)cc2)[C@@H](CO)O1	2[16.7 µM]	1
(cont.)
SMILES	Env fusion inh	UUG fidelity
COc1ccc(S(=O)(=O)Nc2ccc3c(c2)C(=O)N([C@@H](C)CO)C[C@H](C)[C@@H](CN(C)C(=O)c2ccncc2)OCCCC[C@H](C)O3)cc1	-20[16.7 µM]	4
C[C@H](CO)N1C[C@H](C)[C@H](CN(C)S(=O)(=O)c2ccccc2)Oc2ccc(NC(=O)Cc3ccccc3)cc2C1=O	-9[16.7 µM]	13
C[C@@H]1CCCCO[C@@H](CN(C)C(=O)CCC(F)(F)F)[C@H](C)CN([C@H](C)CO)C(=O)c2cc(NC(=O)c3ccccc3)ccc2O1	-1[16.7 µM]	6
COCc1cn(CC[C@H]2CC[C@@H](NC(=O)CCN3CCCCC3)[C@H](CO)O2)nn1	-7[16.7 µM]	-9
COc1cccc(-c2ccc([C@@H]3[C@@H](C#N)N(C(=O)Cc4ccccc4)[C@H]3CO)cc2)c1	11[16.7 µM]	-5
C[C@@H]1CCCCO[C@@H](CN(C)Cc2ccc(C(F)(F)F)cc2)[C@@H](C)CN([C@H](C)CO)C(=O)c2cc(NC(=O)Nc3ccccc3)ccc2O1	10[16.7 µM]	17
C[C@H](CO)N1C[C@H](C)[C@H](CN(C)S(C)(=O)=O)Oc2cc(C#CC3CCCC3)ccc2S1(=O)=O	8[16.7 µM]	18
